High-throughput results from PubChem.
Vif A3G = inhibitors of Vif binding to APOBEC3G peptide, primary screen, biochemical, TR-FRET, GST-Vif 1-94, biotin-A3G peptide, dose response retest (AID 1117319) | 260,000 tested, 0.57% active | TR-FRET GST-Vif / biotin-A3G peptide binding; higher % means a stronger effect; test concentration not given here; strong numbers were not always called active | inhibition, %, or IC50 in µM where a hit was titrated | Virion infectivity factor (Human immunodeficiency virus type 1 group M subtype B (isolate …;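 active = above the screen mean plus three standard deviations and confirmed in dose response; inconclusive = results disagree or hit not tested in dose response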;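 note: Vif residues 1-94 fused to GST binding biotinylated APOBEC3G peptide 110-148; 0% = full assay without inhibitor and 100% = GST in place of GST-Vif; retest series ran down from 100 µM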
LANA-H2B inh = blockers of LANA interaction with H2A/H2B – biochemical, FP readout, HTS, primary screen | Protein LANA1 (Human herpesvirus 8 type P (isolate GK18)), Q9QR71 | cell-free LANA-H2A/H2B peptide, fluorescence polarization | inhibition, % (concentration not given with the values) | 320,000 tested, 0.6% active | AID 2629, 2010; in the data active = inhibition mostly above about 10%, no sharp cut-off; inactive = mostly below about 6.7%;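 note: stock transfer was 7.5 nL into about 10 µL; 0% = median of vehicle wells and 100% = median of positive control wells; one replicate is shown; the record names a cut of 25% in any replicate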
T cruzi repl = inhibitors of intracellular T. cruzi growth, primary screen, luminescence, NIH3T3 host cells. AID 1885, 2009. inhibition, % (test concentration not listed). T. cruzi beta-gal in NIH3T3, 90 h. 300,000 tested, 1.4% active;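 active = mean inhibition across valid replicates above about 55%, limit read from the data; inconclusive = mean below that limit but half or more replicates reach it; inactive = mean below it, under half of replicates reach it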;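 note: signal also drops with host cell toxicity which is not excluded here; 0% = plate median of DMSO wells and 100% = zero luminescence signal; higher percent means less beta-gal luminescence so fewer parasites; stock transfer was 50 nL into about 50 µL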
MLL AF4-AF9 inh = inhibitors of AF4 peptide binding to AF9, primary screen, biochemical, AlphaScreen, biotin-AF4 peptide, FLAG-AF9, single point; inhibition, % at 10 µM; 350,000 tested, 0.47% active; AID 651704, 2012;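 active = every replicate reaching a set inhibition limit, whatever the replicate mean, cut at about 25% in these data; inconclusive = mean inhibition reaches that limit but some replicates miss it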;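 note: 0% = plate neutral control median and 100% = total signal loss; the record names both 10 and 1 µM as test concentration; the first replicate is given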
Target sequence (P42568 whole entry, looked up): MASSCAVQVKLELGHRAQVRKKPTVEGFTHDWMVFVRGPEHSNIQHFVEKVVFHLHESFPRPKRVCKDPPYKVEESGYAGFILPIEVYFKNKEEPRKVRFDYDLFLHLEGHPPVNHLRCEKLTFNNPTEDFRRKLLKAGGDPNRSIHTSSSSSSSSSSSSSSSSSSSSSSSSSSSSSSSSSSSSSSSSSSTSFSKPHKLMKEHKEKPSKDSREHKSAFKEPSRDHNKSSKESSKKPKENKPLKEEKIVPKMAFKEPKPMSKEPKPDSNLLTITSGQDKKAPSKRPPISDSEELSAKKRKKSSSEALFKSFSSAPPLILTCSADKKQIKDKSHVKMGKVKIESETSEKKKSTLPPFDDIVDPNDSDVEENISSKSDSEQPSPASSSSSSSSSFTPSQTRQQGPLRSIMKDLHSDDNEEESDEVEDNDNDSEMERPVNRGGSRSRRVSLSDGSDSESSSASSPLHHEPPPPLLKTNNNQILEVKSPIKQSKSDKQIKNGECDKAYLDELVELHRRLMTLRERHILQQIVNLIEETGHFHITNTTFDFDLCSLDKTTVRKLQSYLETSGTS
Calb FLC = C. albicans growth inhibition with fluconazole, primary screen, CaCi-2 strain, Alamar Blue fluorescence; C. albicans CaCi-2 (fluconazole-resistant clinical isolate) + fluconazole, 48 h; growth inhibition, % (concentration not given with the values); 300,000 tested, 0.57% active;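 active = most replicates above 75%; inconclusive = exactly half above 75%; inactive = most below 75%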;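 note: all wells also contain fluconazole at 8 µg/ml as a sub-toxic cotreatment; 0% = median of DMSO wells and 100% = median of geldanamycin control wells; wells of about 8 µL received 7.5 nL stock; the first replicate is given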
RanGTP-Imp inh = inhibitors of RanGTP-importin-beta interaction, primary screen, biochemical, FRET, CFP-Ran, YFP-importin-beta, homogeneous. cell-free CFP-Ran/YFP-importin-beta FRET ratio. inhibition, % (test concentration not listed). 300,000 tested, 1.1% active. AID 2216, 2009;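 active = most replicates above 15%; inconclusive = exactly half above 15%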;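 note: 0% = DMSO wells and 100% = Ran loaded with GDP instead of GTP; wells of about 40 µL received 100 nL stock; the first replicate is given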
Bfl-1 A1 inh = caspase 3/7 activation in MEF A1-2A-BIM cells, primary screen, A1 inhibitor project, cell-based, luminescence, HTS | Caspase-Glo 3/7 luminescence, 3 h; percent of clofoctol response, vehicle zero | caspase activation, % (concentration not given with the values) | 330,000 tested, 0.066% active | AID 2462, 2010;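 active = over half of replicate activation scores above 10%, or exactly half above 10 with the replicate mean above 10; inconclusive = replicate mean below 10 yet half the replicates above 10; inactive = over half of replicates below 10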;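 note: wells of about 30 µL received 50 nL stock; many hits fall short of the cut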
Beta apoptosis = inhibitors of cytokine-induced beta cell apoptosis, primary screen, luminescence; INS-1E cytokine-induced death, ATP luminescence, 48 h; percent of positive-control rescue, neutral wells zero; protection from apoptosis, % (no concentration beside the values); 300,000 tested, 0.8% active;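 active = all replicates at 75% or more, or half of them and the mean; inconclusive = half reach 75% but not the mean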;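 note: 0% = cytokine-treated negative control wells and 100% = positive control rescue; higher means more ATP so stronger rescue from cytokine killing; wells of about 40 µL received 100 nL stock; the first replicate is given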
* hit, by the source's call; ? = inconclusive; . = no result given; & = joins results of further samples. An unsorted share of the library, and some 4.3% of all compounds hit somewhere here.

SMILES	Vif A3G	LANA-H2B inh	T cruzi repl	MLL AF4-AF9 inh	Calb FLC	RanGTP-Imp inh	Bfl-1 A1 inh	Beta apoptosis
C/C(Cl)=C\CSc1nnc2n(N)c(=O)c3ccccc3n12	-4%	-3.6	19	.	-2	-1.2	0.7	1
CCOC(=O)Cc1csc(NC(=O)CSc2nnc(C3CC3)n2C)n1	?	1.7	-9	.	-2	0.9	-1.9	-2
Cc1ccnc(NC(=O)c2cccc(NC(=O)COc3ccccc3)c2)c1	6%	18	-19	-7.6	8	7.2	-2.1	2
CCOC(=O)c1c(NC(=S)Nc2ccc(Cl)cc2)sc2c1CCN(C)C2	.	-11	.	10.0	.	.	-2.1	-3
COc1ccc2c(c1)O/C(=C\c1sccc1C)C2=O	.	3.5	-9	.	-7	29*	0.5	3
COCCCn1c(SCc2ccc(OC)cc2)nc2cc(OC)c(OC)cc2c1=N	-23%	0.3	41	.	17	-0.9	0.9	-6
COc1ccc2c(c1)C(C)=CC(C)(C)N2S(=O)(=O)c1ccc(NC(C)=O)cc1	-6%	1.5	46	5.7	7	7.8	0.5	22
CCN(CC)S(=O)(=O)c1ccc(C(=O)N(c2ccccc2)C2C=CS(=O)(=O)C2)cc1 (stereo not drawn)	.	0.4	14	-10	-3	-2.3	-0.7	1
CCOc1ccc(CCNC(=O)C2CCN(S(=O)(=O)c3ccc(C)cc3)CC2)cc1OCC	.	2.0	25	-1.2	12	0.3	-1.1	.
CCOC(=O)C1CCN(S(=O)(=O)c2cccc3nonc23)CC1	-1%	-0.3	-14	.	1	-0.4	0.5	6
Cn1cc([N+](=O)[O-])cc1-c1nc2ccccc2n1C	5%	-1.8	18	3.0	-4	-4.7	0.3	-1
O=C(CCCN1C(=O)c2ccccc2C1=O)NCCCN1CCOCC1	-1%	3.2	-5	.	-10	-5.5	-0.4	1
COc1cccc(C2/C(=C(\O)c3ccc4c(c3)OCCO4)C(=O)C(=O)N2c2nnc(C)s2)c1 (stereo not drawn)	.	1.3	49	0.4	0	1.1	-0.1	-8
C=CCN(CC=C)S(=O)(=O)c1ccc2nc(NC(=O)C(C)C)sc2c1	3%	5.1	.	.	.	.	1.2	22
COCCCN1C(=O)C2C(C(=O)Nc3cccc(Cl)c3)C3C=CC2(O3)C1C(=O)NC1CCCCC1 (stereo not drawn)	.	6.2	0	.	8	-3.9	1.7	0
COc1ccc(C(C)=O)cc1CSCCC(=O)O	-4%	-1.0	1	.	-6	2.6	0.0	2
O=C(CCOc1ccccc1)OCC(=O)c1cc2ccccc2o1	1%	-2.5	-1	.	4	11	-0.4	-3
Cc1nc2ccccn2c1C(=O)NN=C1CCN(C)CC1	12%	0.7	0	-1.4	2	3.0	0.9	-3
CCOC(=O)C1=C(CSCC(=O)OC)NC(=O)NC1c1cc(C)ccc1C (stereo not drawn)	-11%	.	-2	.	1	-2.6	.	.
Cc1ccc(S(=O)(=O)N2CCOCC2)cc1C(=O)Nc1ccc(C(N)=O)cc1	3%	3.8	7	-2.6	2	5.7	0.8	-2
Cc1nnc2ccc(-c3ccc(NS(C)(=O)=O)cc3)nn12	0%	-1.9	-11	-3.5	-16	?	0.5	-1
COc1cccc(NC(=O)CSc2cccc[n+]2[O-])c1	.	1.1	.	2.2	.	.	0.3	-2
O=C(COc1ccc(Cl)c2cccnc12)N1CCOCC1	6%	0.2	.	-3.3	.	.	0.2	0
C[C@H](N)c1nnc(SCC(N)=O)o1	-8%	0.9	-7	.	13	?	0.3	0
CCCCN(CC)S(=O)(=O)c1c(C)[nH]c(=O)[nH]c1=O	11%	4.3	-5	-0.2	-3	-0.5	-0.5	.
CCOc1ccc(S(=O)(=O)N2CCC(C(=O)NCCc3ccc(S(N)(=O)=O)cc3)CC2)cc1	-6%	-1.0	-9	-1.0	-1	0.6	-0.1	-12
Cc1cc(NC(=O)CSc2nnc(CNC(=O)c3c(F)cccc3F)o2)no1	.	-6.7	-14	-15	0	1.6	-0.3	-2
CCN(CC)c1ccc(NC(=O)CN2CCN(c3ccccc3F)CC2)cc1	3%	-2.9	5	.	-43	-0.8	?	4
CCCCn1nnnc1NCc1cccc(OC)c1OC	17%	-0.3	-4	-4.2	-6	.	-0.1	-7
COC(=O)C1(C)NC(c2ccc(C)cc2)C2C(=O)N(c3ccc(F)cc3)C(=O)C21 (stereo not drawn)	.	3.3	-7	0.0	7	-0.9	0.9	-4
O=C(c1cc(COc2ccc(F)cc2Cl)on1)N(Cc1ccncc1)CC1CCCO1 (stereo not drawn)	8%	1.7	70*	-3.7	5	1.6	0.3	1
O=C(Nc1ccc(N2CCOCC2)cc1)Nc1ccc2nsnc2c1	16%	-1.9	-11	0.4	0	-6.6	-1.4	-2
COc1ccc(NC(=O)CSc2nnc(-c3ccccc3)n2N)cc1	24%	9.6	-4	.	-8	1.4	-0.1	-4
CCn1ncc(C2=NOC(C(=O)NCc3ccc(OC)cc3)C2)c1C (stereo not drawn)	3%	-1.1	1	.	4	-2.8	-0.8	-3
O=C(CN1C(=O)NC2(CCCCC2)C1=O)N1CCN(C(=O)c2cccs2)CC1	-8%	-2.8	.	7.4	.	.	0.0	-3
CN(C(=O)CC(=O)Nc1ccc(Cl)c(Cl)c1)c1ccccc1	-11%	1.5	2	-1.5	-14	2.3	0.0	-5
COc1ccc(-n2c(C)nn(CC3CC3)c2=O)cc1	-6%	.	-7	1.3	-7	1.9	.	.
Cc1[nH]c(=O)[nH]c(=O)c1S(=O)(=O)N1CCCC(C(=O)NCc2ccco2)C1 (stereo not drawn)	2%	0.4	-18	.	-2	4.0	-0.7	-4
O=C(NCCc1ccc(Cl)cc1)C1CCCO1 (stereo not drawn)	1%	5.5	-10	1.8	-9	0.0	2.5	-1
CN(CC(=O)Nc1ccc(N2CCOCC2)cc1)CC(=O)Nc1ccc(C(F)(F)F)cc1	-1%	-1.7	.	-0.7	2	.	-0.5	-1
COc1ccc(N2CCN(Cc3cc4c(cc3Br)OCCO4)CC2)cc1	10%	-2.4	34	27*	-4	-0.3	1.6	3
COc1ccc(NC(=O)CN(C)S(=O)(=O)c2ccc(Cl)cc2)c([N+](=O)[O-])c1	-3%	3.4	-3	6.4	-2	-6.3	0.3	-2
CC(=O)c1ccc(S(=O)(=O)Nc2ccc(-c3cn4c(n3)SCC4)cc2)cc1	4%	2.5	5	.	34	-1.0	0.2	-1
CC(=O)c1c(-c2ccccc2)[nH]c2ccccc12	.	2.6	6	0.2	7	11	-0.1	20
CCNC(=O)C1CCCN(c2nc(C)cc(C)n2)C1 (stereo not drawn)	-8%	9.0	-4	-0.6	10	1.7	0.0	0
Cn1c(=O)c([N+](=O)[O-])c(NCCc2ccccc2)c2ccccc21	-8%	-1.3	59*	.	-11	?	0.8	1
O=C(COC(=O)c1ccccc1)NC12CC3CC(CC(C3)C1)C2	8%	-2.0	.	-1.2	.	.	-0.6	-7
CC(=O)O[C@]1(C(C)=O)CC[C@H]2[C@@H]3C[C@H](C)C4=CC(=O)CC[C@]4(C)[C@H]3CC[C@@]21C	-12%	-4.2&1.2	19	2.6&2.3	.	2.5	-0.2&-1.6	4&1
CCc1nn(C(C)C(=O)N2CCc3ccccc3C2)c(=O)c2cc3occc3n12 (stereo not drawn)	21%	2.9	2	.	4	-4.3	-1.8	2
CN(CC(=O)Nc1ccccc1C(F)(F)F)C(=O)CSCc1ccccc1	6%	1.9	-6	-0.3	-4	1.0	0.2	1
CCOC(=O)Cc1nnc(NC(=O)CSc2ccc(C)cc2)s1	6%	0.8	9	.	28	7.1	0.1	-10
CCOc1ccccc1/C=N/Nc1ccc(Cl)nn1	-3%	0.1	-5	0.6	0	-5.0	2.5	7
C/C(CC(=O)Nc1cc(C)ccn1)=N\NC(=O)c1ccc(C)cc1	2%	6.0	0	-0.7	2	5.6	1.2	-13
CC(C)NS(=O)(=O)c1ccc(OCC(=O)NCCC2=CCCCC2)cc1	3%	-5.6	11	.	-3	3.2	-0.7	-3
O=C(NC1CCCN(Cc2ccc(Cl)cc2)C1)c1ccoc1 (stereo not drawn)	0%	-1.5	22	3.9	3	3.0	-0.3	-7
COc1ccc(-c2c(C)c3ccc(O)cc3oc2=O)cc1OC	.	-2.8	-11	-3.3	1	20*	0.2	1
COc1ccccc1CN(C)C(=O)CN1CCN(CC(=O)Nc2ccccc2Cl)CC1	.	-2.6	.	1.1	.	.	0.9	-6
COc1ccc(NS(=O)(=O)c2ccc3c(c2)CCO3)cc1	.	3.1	-5	1.1	-4	-2.6	-0.3	.
CCNc1ccc(C(=O)Nc2ccc3nc(C)sc3c2)cc1[N+](=O)[O-]	1%	-1.0	-15	2.0	-1	1.4	0.2	5
Cn1cccc1C(=O)N1CCN(c2cccc(C(F)(F)F)c2)CC1	15%	7.5	-4	.	-2	-0.5	-0.4	0
The listing continues:
SMILES	Vif A3G	LANA-H2B inh	T cruzi repl	MLL AF4-AF9 inh	Calb FLC	RanGTP-Imp inh	Bfl-1 A1 inh	Beta apoptosis
O=C(NCCN1CCOCC1)c1csc2c1CCCC2	-6%	-2.9	-3	.	4	5.2	-0.2	0
O=C(COC(=O)Cc1ccc(F)cc1)Nc1ccc2[nH]c(=O)[nH]c2c1	4%	-6.1	0	-1.1	-8	2.4	0.0	3
CC(=O)Nc1ccc(-c2csc(Nc3ccccn3)n2)cc1	.	-0.2	-6	-7.2	5	2.5	-8.5	5
Cc1cccc(Cn2c(=O)n(CCCC(=O)NCc3ccco3)c(=O)c3ccccc32)c1	-1%	4.0	14	.	5	-4.7	0.2	11
Nc1nc(SCC(=O)N2CCc3ccccc32)[nH]c(=O)c1-c1ccccc1	2%	-1.5	-8	6.2	-2	-0.8	0.5	5
CCn1c(SCC(=O)Nc2c(C)n(C)n(-c3ccccc3)c2=O)nnc1-c1cccc(C)c1	-5%	-0.8	-17	.	7	4.6	-0.2	-2
O=C(CCNC(=O)c1ccc(Cl)cc1)NC1CCCc2ccccc21 (stereo not drawn)	28%	-2.7	.	-2.2	.	.	0.0	-1
Cc1ccc(C(=O)N2CCN(c3ccccn3)CC2)cc1C	-7%	-0.5	-6	1.6	24	3.2	1.3	-5
CCC(C(=O)Nc1ccccc1OC)n1c(C(=O)OC)cc2ccsc21 (stereo not drawn)	-2%	11	-2	.	4	-2.5	-0.3	.
COc1ccc(C2C(C#N)=C(N)Oc3cc(O)ccc32)cc1OC (stereo not drawn)	?	-2.6	8	.	-6	56*	0.2	9
Cc1cccc(OCC(=O)NCCN2CCOCC2)c1	4%	-1.7	-2	.	-2	-0.8	0.2	-3
Cc1ccc(CN(Cc2ccco2)C(=O)c2ccco2)cc1	.	-8.4	8	3.8	7	-3.6	0.2	-1
CCC(c1nnc(SCC(=O)Nc2cccc(S(N)(=O)=O)c2)n1-c1ccc(OC)cc1)N(C)C (stereo not drawn)	-1%	-0.3	4	0.1	-7	0.1	-0.9	-4
